Ba CapD inh: blocks the Bacillus anthracis CapD enzyme | purified CapD enzyme, fluorescence intensity read-out; active compounds read low; some hits fall short of the stated cut | z-score (test concentration not listed) | 0.23% of 140,000 active;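 active means z-score under -4 in either of two replicates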;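 further: stock transfer was 100 nL into about 40 µL; score is relative to mean and spread of the plate; one replicate is shown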
AID504770: E. coli YBA685 growth inhibition, screen for V. cholerae RctB inhibitors; E. coli YBA685 rctB-dependent plasmid, OD600 growth, 3 h; active compounds read low; z-score (concentration not given with the values); 0.27% of 130,000 active; AID 504770;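 active means z-score under -2 on both plates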;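 further: wells of about 30 µL received 100 nL stock; score is relative to mean and SD of the test wells; the first replicate is given; strong numbers were not always called active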
An asterisk follows results filed as active; / = not tested or not shown; & = joins results of further samples. An excerpt, so the mix of outcomes need not match the whole.

compound	Ba CapD inh	AID504770
O=C(CCC(=O)N1CCC(N(C2CC2)S(=O)(=O)c2ccc(Cl)cc2)CC1)NCCc1ccccc1	-0.62	/
Cc1cc(C)cc(NC(=O)c2cc(S(=O)(=O)N3CCc4ccccc43)ccc2F)c1	-0.38	/
CCN(CC)C(=O)CC(c1ccc(F)cc1)c1ccco1 (stereo not given)	0.34	0.1
Cc1ccc(N2C(=O)N(CC(N)=O)c3ccccc3S2(=O)=O)cc1	0.005	-0.05
COc1ccc(N2CCN(CCNC(=O)c3ccc(NC(=O)C4CCCO4)cc3)CC2)cc1 (stereo not given)	-0.01	-1.05
N#CNC(N)=Nc1ccccc1	-0.01	-0.65
CCOC(=O)C1=CN(Cc2ccc(OC)cc2)C=C(C(=O)OCC)C1c1ccc(Cl)c([N+](=O)[O-])c1	0.36	/
C=CCNC(=O)C1c2cccn2-c2ccccc2CN1C1CCN(C(C)=O)CC1 (stereo not given)	-0.56	/
Cc1cccc(C(=O)Nc2cc(C(F)(F)F)ccc2-n2cncn2)c1	/	1.25
CC(C(=O)O)N1C(=O)CCC1=O (stereo not given)	0.365	-1.6
O=C(CCSc1nnc2sc3ccccc3n12)Nc1cccnc1	/	-0.15
COc1ccc(C2CC(c3c(-c4ccccc4)c4cc(Cl)ccc4[nH]c3=O)=NN2C(=O)CCC(=O)O)cc1 (stereo not given)	10.6	/
O=C(NCCN1CCOCC1)c1ccco1	/	-0.7
CCOC(=O)Cc1csc(NC(=O)CC)n1	-0.15	0
CC(O)c1nc2ccccc2n1Cc1ccccc1 (stereo not given)	/	-0.9
COc1cc(C2C3=C(CCCC3=O)NC3=C2C(=O)c2ccccc23)ccc1O (stereo not given)	-0.625	/

Arranged by formula weight (smallest number first): 7 of the compounds above
compound	Ba CapD inh	AID504770
N#CNC(N)=Nc1ccccc1	-0.01	-0.65
CC(C(=O)O)N1C(=O)CCC1=O (stereo not given)	0.365	-1.6
O=C(NCCN1CCOCC1)c1ccco1	/	-0.7
CC(O)c1nc2ccccc2n1Cc1ccccc1 (stereo not given)	/	-0.9
Cc1cccc(C(=O)Nc2cc(C(F)(F)F)ccc2-n2cncn2)c1	/	1.25
O=C(CCSc1nnc2sc3ccccc3n12)Nc1cccnc1	/	-0.15
CCOC(=O)C1=CN(Cc2ccc(OC)cc2)C=C(C(=O)OCC)C1c1ccc(Cl)c([N+](=O)[O-])c1	0.36	/

More compounds:
compound	Ba CapD inh	AID504770
Nc1cc(-c2nc3ccccc3o2)ccc1Cl	36.7	-0.3
COc1ccccc1NC1=NC(CO)(CO)CS1	0.23	-0.25
Cc1ccc(N(Cc2ccco2)C(=O)c2cc3ccccc3oc2=O)cc1	-0.185	1.5
c1ccc(CSc2ccc(-c3ccco3)nn2)cc1	0.005	-1.9
CC(=O)Nc1ccc(S(=O)(=O)NCC2CCN(CC3CCCCC3)CC2)cc1	/	-0.85
O=C(CSc1nnc(-c2ccco2)o1)NC(c1ccccc1)c1ccccc1	/	-0.9
Cc1ccccc1/[N+]([O-])=C/c1cccs1	/	0.4
Cc1ccccc1SCC(=O)NCCN1CCOCC1	/	-0.9
COCCCn1c(=O)c2ccccc2c2ccccc2c1=O	/	0.45
COc1ccc(CCN2CCC(Nc3nc4ccccc4n3Cc3ccc(F)cc3)CC2)cc1	0.995&-0.62	-0.2
CC1=NC2(CCN(C(=S)Nc3ccccc3)CC2)N=C1c1cccc(C(F)(F)F)c1	-0.195	/
N#CCc1c(C#N)c(N)nc(N2CCCCC2)c1C#N	/	0.75
Cc1cc(S(=O)(=O)n2cccc2)c(Cl)cc1Cl	0.37	0.35
Cc1nc2ccccc2c(=O)n1C	-0.44	-0.4
NC(=O)C1(N2CCCCC2)CCN(c2ncc(C(F)(F)F)cc2Cl)CC1	-0.56	/
Cc1ccc(NC(=O)CSC2=C(C#N)C(c3ccc(C)cc3)C3=C(CCCC3=O)N2)cc1 (stereo not given)	1.27	-0.35
CC(C)C(=O)Nc1nc2ccccc2s1	-0.015	-0.4
COc1ccc(C)c2sc(N(Cc3ccccn3)C(=O)c3ccco3)nc12	/	0.1
O=S(=O)(c1ccc(NC(=S)NCc2ccco2)cc1)N1CCCc2ccccc21	-0.19	-0.65
Cc1nn(C(C)CN)c(C)c1C (stereo not given)	/	1.9
CCC(C)(CC(=O)O)CC(=O)Nc1cc(OC)c(Cl)cc1OC (stereo not given)	/	-1.35
Oc1c(CN2CCOCC2)ccc2ccccc12	18	-0.85
Oc1ccc(Cl)cc1C=Nc1ccc2oc(Cc3ccc(Cl)cc3)nc2c1	-0.34	-0.65
Cc1ccc2cnn(CC(=O)N3CC(C)CC(C)C3)c2c1 (stereo not given)	0.46	-0.2
O=C(Nc1ccccc1C(=O)O)c1ccccc1F	-0.735	2.25
CC(=O)n1cc(/C=C2\N=C(c3ccc(Cl)cc3)OC2=O)c2cc(Br)ccc21	-0.94	/
C=CCn1c(SCC(=O)NCCc2ccccc2)nc2sc3c(c2c1=O)CCC3	-0.375	/
CNc1nc(SCc2c(C)noc2C)nc2ccccc12	/	1.1
Cc1cccc(N2CCN(c3ncnc4c3cnn4-c3ccccc3)CC2C)c1 (stereo not given)	-0.4	/
Cc1ccc(C(=O)O)cc1-c1ccc(/C=C2/NC(=O)N(c3ccccc3)C2=O)o1	21.5	-1.35
O=C(COc1ccccc1Cl)N/N=C/c1ccc(Br)cc1	-0.025	/
COC(=O)Cc1nc(NCc2ccc(Cl)cc2)c2c(C)c(C)sc2n1	-1.14	/

2 entries from above, with values under each structure.
Results follow in this order: Ba CapD inh, AID504770
- COC(=O)Cc1nc(NCc2ccc(Cl)cc2)c2c(C)c(C)sc2n1
    -1.14, /
- Cc1cccc(N2CCN(c3ncnc4c3cnn4-c3ccccc3)CC2C)c1 (stereo not given)
    -0.4, /

The listing continues.
compound	Ba CapD inh	AID504770
NNC(=O)c1nnn(-c2nonc2N)c1CSc1nc2ccccc2[nH]1	-0.19	/
CCC1CCC(C(=O)NC(C(=O)NCc2cccs2)C(C)C)CC1 (stereo not given)	-0.235	-1.25
OCc1nc(-c2ccccc2)n2ccccc12	28.7	-0.05
COc1ccc(/C=C2\CCc3ccccc3C2=O)cc1OCc1ccccc1	-1.14	/
Cn1cc(C(=O)N2CCCCC2)c(=O)c2cc(S(=O)(=O)N3CCCC3)ccc21	0.08	0.45
Cc1nc(C2C(=O)c3ccc(O)c(O)c3OC2C(F)(F)F)cs1 (stereo not given)	-1.48	0.5
CCOC(=O)c1c(C)noc1C	/	0.3
CC(C)n1nnnc1SCC(=O)NCc1ccco1	/	-0.4
N#CCSc1nnc(-c2ncc(C(F)(F)F)cc2Cl)n1-c1ccc(Cl)cc1	10.4	0.2
NC(=O)N/N=C/c1ccc(OC(F)F)cc1	/	-0.45
CN(C)CCCNc1ncnc2ccccc12	4.74	-1.2
Cc1cc2nccc(-c3ccc(OCc4ccc(Cl)cc4Cl)cc3)n2n1	1.01	/
Cc1cccc(/N=c2\scc(-c3ccco3)n2-c2ccccc2)n1	-0.705	0.15
CCc1ccc2c3c(c(C)[nH]c13)CCN1C(=O)OC(C)(C)C21C (stereo not given)	-0.42	/
CC1CCC(NC(=O)c2ccc3c(=O)[nH][nH]c(=O)c3c2)CC1 (stereo not given)	/	1.6
CC(C(=O)NCc1ccccn1)n1cccc1C(=O)c1ccccc1 (stereo not given)	-0.41	1.5
CCOC(=O)Cn1ncc2c(=O)oc3ccccc3c21	-0.755	-0.8
CCCC(=O)N1CCc2cc(OC)c(OC)cc2C1COc1ccc(OC)cc1 (stereo not given)	0.07	-0.55
Cc1ccc(-n2nc(C)cc2NC(=O)c2ccc(Cl)cc2)cc1	-0.19	0.15
O=C1c2ccccc2C(=O)N1CN(C(=O)C(F)(F)F)c1ccc(Cl)cc1	-0.08	-1.8
Cc1ccc(S(=O)(=O)NC(=O)NCCNc2ncc(C(F)(F)F)cc2Cl)cc1	-0.145	/
C/C(=C\C(=O)O)C12CC3CC(CC(C3)C1)C2	-2.17	-0.45
O=c1cc(CN2CCN(Cc3ccccc3)CC2)nc2sccn12	4.33	1.05
COCc1cc(OC(=O)N(C)C)nc(-c2ccc(C)c(Cl)c2)n1	-0.02	-0.25
CCOC(=O)c1sc(SCc2ccccc2)c2c1-c1sccc1N(C)S2(=O)=O	0.655	0.5
CNC(=O)COC(=O)c1oc2ccccc2c1C	/	0.65
CCN(CC)C(=O)c1cc2c(s1)-c1c(C)cccc1OC2	0.03	0.35
CC1CN(C(=O)c2sc3ccccc3c2Cl)CC(C)O1 (stereo not given)	-0.365	0.05
O=C(Cc1ccccc1)Nn1c(SCc2cc(=O)n3cc(Cl)ccc3n2)nc2ccccc2c1=O	0.37	/
Cc1nc(N2CCCCC2)c2c(C)c(C(=O)N3CCN(Cc4ccc5c(c4)OCO5)CC3)sc2n1	0.38	/
O=C1CCc2cc(C3=CSC4=NCCCN34)ccc2N1	0.16	0.8
O=C(N/N=C/c1cccs1)C1CCN(S(=O)(=O)c2cccs2)CC1	/	-0.1
Cn1cc(C(=O)c2cccc(Cl)c2Cl)cc1C(=O)O	-0.07	1
COC(=O)c1c(C)oc2ccc(NS(=O)(=O)c3ccc4c5c(cccc35)C(=O)N4)cc12	0.42	/
CCN=c1scc(-c2cc(C)c(C)cc2C)n1/N=C/c1ccc(C)o1	/	-0.5
COc1ccc(CSc2cccc[n+]2[O-])cc1F	/	-0.1
CC(=O)N1CCC(O)C2CCCCC21 (stereo not given)	-1.09	-0.4
O=[N+]([O-])c1ccc(C2CC(c3ccc(Br)cc3)=Nc3ccccc3N2)cc1 (stereo not given)	3.35	/
OCn1c(=S)sc2ccccc21	-0.965	-0.4
CCc1nnc(NC(=O)CC23CC4CC(CC(C4)C2)C3)s1	0.55	-0.05
CC1CCCCC1NC(=O)c1nn(C)c2c1CS(=O)(=O)c1ccccc1-2 (stereo not given)	-0.01	-0.25
CC(C)(C)c1cc(C(c2ccccn2)N2CCCC2)cc(C(C)(C)C)c1O (stereo not given)	-0.085	-0.2
CSc1sc(-c2ccn(C(C)=O)n2)c2c1C(=O)CC(C)(C)C2	-0.24	0.85
CN1C2=C(C#N)C(=O)CN2c2ccccc21	/	-0.5
CCOc1ccc(-c2[nH]nc3c2C2(C(=O)N(CC(=O)OC)c4ccccc42)C(C#N)=C(N)O3)cc1 (stereo not given)	-0.63	/
CCOC(=O)CNC(=O)c1c(-c2c(Cl)cccc2Cl)noc1C	0.01	/
O=C(O)c1cccnc1Nc1ccccc1	-0.515	0.9
O=C(Cc1c(C(=O)O)[nH]c2ccc(Cl)cc12)NC1CCCCC1	-0.09	-0.9
CCNS(=O)(=O)c1ccc(CCC(=O)Nc2ccc(C(=O)OC)cc2)cc1	-0.365	-0.6
Clc1ccc(C2Oc3ccccc3C3CC(c4ccco4)=NN32)cc1 (stereo not given)	0.145	1.75
Cc1nc(C(=O)Nc2cccc(C(F)(F)F)c2)nn1-c1ccc(F)cc1F	-0.275	/
CCC(C)(C)c1ccc(OC2CSC2)cc1	-0.52	2.35
Cc1cccc(C)c1OCC(C)N (stereo not given)	-0.735&0.92	/
CCOC(=O)c1cc2cccc(NS(=O)(=O)c3cccc(C(F)(F)F)c3)c2[nH]1	-0.645	/
COC(=O)c1cc(N2C(=O)C3C4C=CC(C)(O4)C3C2=O)ccc1Cl (stereo not given)	-0.355	-0.55
Cc1ccc(C2=NN(C(=O)c3ccc(Br)o3)C(c3ccc(C)cc3)C2)cc1 (stereo not given)	-0.25	-0.1

The listing continues.
compound	Ba CapD inh	AID504770
O=C(Nc1ccc(Cl)c(Cl)c1)C1OC2OC3(CCCCC3)OC2C2OC3(CCCCC3)OC12 (stereo not given)	-0.4	/
O=C(N1CCN(c2ccccn2)CC1)C12CC3CC(CC(C3)C1)C2	/	-0.1
CC(C)Oc1ccc(C(CC(=O)NC2CCOC(C)(C)C2)c2ccccc2)cc1 (stereo not given)	0.07	0.9
NC(=O)c1ccccc1NC(=O)c1c(Cl)nc2sccn12	0.66	0
Cc1ccc(C)c(C(C)c2ccc(C)nc2)c1 (stereo not given)	/	1.5
Cc1ccc(CNC(=O)CSc2nc3cc(S(=O)(=O)N4CCCCC4)ccc3o2)cc1	/	-0.15
CC(C)(C)C(=O)/C(C#N)=C/Nc1ccc(Cl)cn1	-2.14	0.35
CN1CCc2nc3sc(C(=O)c4ccc5c(c4)OCO5)c(N)c3cc2C1	/	1.45
COc1cc(CN2CCC(NS(=O)(=O)c3ccc(C)c(Cl)c3)C2)cc2c1OCO2 (stereo not given)	-0.55	/
CC(C)CCNC(=O)C1c2ccccc2C(=O)N(C)C1c1cn(C)c2ccccc12 (stereo not given)	-0.005	-0.5
Cc1[nH]n(-c2ccccc2)c(=O)c1C(c1ccc(OC(=O)c2cccc([N+](=O)[O-])c2)cc1)c1c(C)[nH]n(-c2ccccc2)c1=O	-0.54	/
CN(C(=O)CSCc1ccccc1)c1ccccc1	-0.39	2.15
CC1SC2(OC1=O)C1CC3CC(C1)CC2C3 (stereo not given)	0.11	-0.75
Cc1c(C(=O)O)sc2ncnc(N3CCN(c4ccccn4)CC3)c12	-0.215	/
N/C(=N\OC(=O)CSc1ccccc1)c1ccncc1	-0.92	-1.3
Cc1cc(N=Cc2c(O)n(-c3ccccc3F)c(=O)c3ccccc23)n[nH]1	/	0.55
CCN1CC=C(c2c[nH]c3ccccc23)CC1	-0.465	-1.3
CC(=O)NN1C(=O)c2ccccc2NC1c1ccccn1 (stereo not given)	56.8	0.05
